HSD17B inh = qHTS Assay for Inhibitors of HSD17B4, hydroxysteroid (17-beta) dehydrogenase 4. 3-hydroxyacyl-CoA dehydrogenase type-2 (Homo sapiens), Q99714. recombinant HSD17B10, NADH fluorescence kinetic; many of its hits are not listed in these tables. Potency, µM (highest dose often 57.1 µM), without a hit: at the highest dose activity change, negative = inhibition, actives largely listed as inhibitors. actives 7.6% (n = 75,000). AID 893, 2007; active = well fitted inhibition curve with a large enough effect; inconclusive = small, poorly fitted or top-dose-only effect; inactive = no such curve, though single readings can be large or run the other way;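 also: the protocol describes HADH2 (HSD17B10) and not the HSD17B4 of the title; nearly all actives have a fitted effect of over 70% in size; most hits overshoot -100% by far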
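His-tagged E. coli-expressed HADH2 at 20 nM in 100 mM Tris-HCl pH 9.0 with 0.01 % Tween-20, preincubated 15 min with compound at room temperature. Reaction with 1 mM NAD+ and 90 uM beta-hydroxybutyryl coenzyme A; NADH fluorescence (360/450 nm) read kinetically over 4 min, last minus first point.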
Starred values were filed as active, the others as inactive; ? = inconclusive; & = joins results of further samples; [ ] = remark or other dose. % is scaled to controls: 0 for no effect and ±100 for the full control effect; potency is read from the fitted curve at half-maximal effect.

structure	HSD17B inh
CCCOc1ccc(N2C(=O)CC(N3CCN(c4ccccc4F)CC3)C2=O)cc1 (stereo not drawn)	9%
COCC(=O)Nc1ccc(N(C)C)cc1	0%
CC1CN(S(=O)(=O)c2ccc(NC(=O)CCCN3C(=O)c4ccccc4C3=O)cc2)CC(C)O1 (stereo not drawn)	4%
CC(C)(C)OC(=O)C1=NOC2(C=CC(=O)C=C2)C1	-6%[11.4 µM]
COc1ccccc1C(=O)N1CCc2ccccc21	3%
Cc1occc1-c1nnc(SCC(=O)N2c3ccccc3CCc3ccccc32)n1C	-11%
CC(NS(C)(=O)=O)C(c1cccs1)N1CCN(c2ccc(F)cc2)CC1 (stereo not drawn)	7%
COC(=O)C/C=C\[C@@H](C)[C@H]1C=C[C@H](O)[C@@H](CO)O1	9%[11.4 µM]
C=C/C(C)=C/[C@]1(C)SC(=O)C(C)=C1O	?
O=C(CN(Cc1ccccc1)C(=O)c1ccco1)NCc1ccc(F)cc1	1%
Nc1ccnc(C(F)(F)F)c1C(=O)c1ccccc1	12%
Cc1cc(NC2C3CC4CC(C3)CC2C4)n2nnnc2n1 (stereo not drawn)	3%
CN1CCN(CC(=O)Nc2ccc(Cl)cc2Cl)CC1	1%
COC(=O)c1sc(N)c(C(=O)OC)c1CSc1nnc(-c2ccccc2Cl)n1C	-7%
COC(=O)C1(CCSC)NC(c2ccco2)C2C(=O)N(C)C(=O)C21 (stereo not drawn)	-1%
COC(=O)c1cc(=O)nc2sc3ccccc3n12	-24%
CCOCCCn1c(=S)[nH]c2ncccc2c1=O	0%
CN(C)C(=O)Cn1c(=O)n(C)c2ccccc21	-17%
O=C(CN1C(=O)c2ccccc2S1(=O)=O)Nc1cccnc1	0%
O=C(COc1ccc2ccccc2c1)N1CCN(c2ccccc2O)CC1	-8%
Cc1ccc(CO)cc1	6%
C1CCc2c(nc3nnnn3c2N2CCOCC2)C1	10%
Cn1c(=O)cc(OCCCC(=O)NCc2ccccn2)c2ccccc21	-6%
CCOc1ccc(C2C(C#N)=C(N)Oc3nc[nH]c(=O)c32)cc1OC (stereo not drawn)	2%
O=C(CCn1c(=O)oc2ccccc21)NCCCN1CCCC1=O	-5%
C[C@]12CC[C@H]3c4ccc(O)cc4CC[C@@H]3[C@H]1CC[C@@H]2OC(=O)CCc1ccccc1	19%[11.4 µM]
CC(C)(C)N1CC(COc2ccccc2)OC1=O (stereo not drawn)	-6%
CC(c1ccccc1)n1cc(C(=O)NCc2ccncc2)nn1 (stereo not drawn)	-4%
NC(Cc1cnc[nH]1)C(=O)Nc1ccc2ccccc2c1 (stereo not drawn)	2%
COC(=O)CSC1=C(C#N)C(c2ccc(Cl)cc2)C(C(=O)OC)C(=O)N1 (stereo not drawn)	-26%
Brc1cccc(-c2n[nH]c(-c3ccccc3)n2)c1	15%
Cn1c(=O)c2c(nc(SCc3cccnc3)n2Cc2ccc(F)cc2)n(C)c1=O	6%
Cc1cccc(C)c1NC(=O)CSc1nnc([C@H](C)NC(=O)OC(C)(C)C)o1	-2%
CCOC(=O)N1CCN(C(=O)CSc2nnc(Cc3ccccc3)o2)CC1	8%
CCCn1c(C)nc2c(NCCCN3CCCCC3C)nc(C)nc21 (stereo not drawn)	3%
COC(=O)C(C(=O)OC)C(C(C)C)C(C(=O)OC)C(=O)OC	10%
O=C(O)c1cc(=O)cc(C(=O)O)[nH]1	6%&-6%
Cc1ccc(S(=O)(=O)N2CCCC(C(=O)N(Cc3cccs3)C3CC3)C2)cc1 (stereo not drawn)	0%
Cc1ccc2nc(-c3ccc(NC(=O)c4ccc(N)cc4)c(S(=O)(=O)O)c3)sc2c1	3.2µM*
c1ccc(Cn2nnnc2C(c2cccs2)N2CCOCC2)cc1 (stereo not drawn)	-4%

Quoted from the listing.
`Cn1c(=O)cc(OCCCC(=O)NCc2ccccn2)c2ccccc21` in HSD17B inh = -6%
`COC(=O)CSC1=C(C#N)C(c2ccc(Cl)cc2)C(C(=O)OC)C(=O)N1` (stereo not drawn) in HSD17B inh = -26%

Further results:
structure	HSD17B inh
O=C(c1cccs1)c1cn(CC(=O)N2CCc3ccccc3C2)c2ccccc12	-7%
Cc1ccc2nc3c(cc(C(=O)NCCCn4ccnc4)n3C)c(=O)n2c1	10%
O=C1C2C3C=CC(C3)C2C(=O)N1CCCCN1C(=O)C2C3C=CC(C3)C2C1=O (stereo not drawn)	6%
CCC/C=C(\CCC)C(NS(C)(=O)=O)c1ccccc1 (stereo not drawn)	5%
N#CCCn1c(SCC(=O)NCCc2ccc(F)cc2)nc2ccccc21	-7%
CCOC(=O)C(C)Sc1nc2c(c(=O)[nH]c(=O)n2C)n1Cc1ccc(Cl)cc1 (stereo not drawn)	-15%
COc1ccccc1NC(=O)CSc1nnc(-c2ccncc2)n1CC1CCCO1 (stereo not drawn)	-6%
CCC(=O)Nc1ccc2c(c1)nc1n2CCSC1	-4%
Cc1ccc(NC(=O)CCn2c(=O)oc3ccccc32)c(C)c1	5%
CC(C)(C)NCC[C@@H](O)c1cc(C(F)(F)F)nc2c(C(F)(F)F)cccc12	4%[11.4 µM]
N[C@H](C(=O)N[C@@H]1C(=O)N2C(C(=O)O)=C(Cl)CS[C@@H]12)c1ccccc1	?
N#Cc1c(N)nc(N2CCCC2)c(C#N)c1-c1ccc(Cl)cc1	32µM*
CCCCn1nc(C(=O)N2CCc3ccccc32)c2ccccc2c1=O	-6%
CCOc1ccccc1C(=O)NCc1ccco1	25µM*
N#Cc1c2ncn(CC(=O)c3ccc(Br)cc3)c(=O)c2c2n1CCC2	1%
COc1cc(C(N)=O)ccc1OCc1ccccc1	-2%
O=C(NCc1nc2ncc(Br)cc2[nH]1)c1ccccc1	3%
Cc1nnc(SCC(=O)N2CCOCC2)s1	-1%
CCC(C)c1ccc2oc(-c3ccc(NC(=O)Cn4cnc5c(=O)n(C)c(=O)n(C)c54)cc3)nc2c1 (stereo not drawn)	10µM*
Cn1c(=O)n(C)c2cc(S(=O)(=O)NCc3ccccc3)ccc21	4%
O=C(CCc1nc2ccccc2[nH]1)NCc1ccc2c(c1)OCO2	2%
COc1ccc(-n2ncc3c(NCC(C)C)ncnc32)cc1	?
CCOC(=O)c1cn(CC)c2cc(N3CCOCC3)c(F)cc2c1=O	20µM*
O=C(Nc1nsc(-c2ccccc2)n1)c1ccncc1	41%[activator]
COc1ccc(S(=O)(=O)NCCC(=O)NC2CCCCCCC2)cc1	8%
O=C(CSc1nnc2sc3ccccc3n12)c1ccco1	-6%
CC(=O)Nc1ccc(S(=O)(=O)NC(CC(=O)O)c2ccc(OC(C)C)cc2)cc1 (stereo not drawn)	15%
Cn1nc(OCC(N)=O)ccc1=O	-10%
Cc1cccc(NC(=O)C2CCCN(c3nc(C)cc(C)n3)C2)c1 (stereo not drawn)	-12%
NC(=O)c1ccc(N2CCCCC2)c(N2C(=O)CCC2=O)c1	3%
CCOc1ccc(NCC(=O)Nc2ccc(C)cc2C)cc1	-3%
Cc1sc(NC(=O)CSc2nnc(COc3ccccc3)n2C)c(C#N)c1C	0%
COc1cc(-c2nc3cnccn3c2Nc2ccccc2)ccc1O	2%
COc1ccc(-c2noc(CCCC(=O)NCCc3ccccc3)n2)cc1OC	-1%
C=C(C)Cn1c(CCNC(=O)CC)nc2ccccc21	2%
Cc1ccc(-c2cnc(N)n2C)cc1C	-5%
Cc1onc(-c2ccccc2)c1C(=O)N1CCN(C/C=C/c2ccccc2)CC1	4%
CCOC(=O)c1oc2ccccc2c1NC(=O)c1cccc(OC)c1OC	32µM*
O=S(=O)(c1ccc(OCC(O)CN2CCc3ccccc3C2)cc1)N1CCOCC1 (stereo not drawn)	9%
Cc1ccc(C)c(C(C)NC(=O)C2C3CCC(O3)C2C(=O)O)c1 (stereo not drawn)	10%

Nothing new here: four of the compounds above.
structure	HSD17B inh
Cc1onc(-c2ccccc2)c1C(=O)N1CCN(C/C=C/c2ccccc2)CC1	4%
CCOC(=O)c1oc2ccccc2c1NC(=O)c1cccc(OC)c1OC	32µM*
O=S(=O)(c1ccc(OCC(O)CN2CCc3ccccc3C2)cc1)N1CCOCC1 (stereo not drawn)	9%
Cc1ccc(C)c(C(C)NC(=O)C2C3CCC(O3)C2C(=O)O)c1 (stereo not drawn)	10%

(listing goes on)
SMILES	HSD17B inh
CC(C)NS(=O)(=O)c1ccc(OCC(=O)Nc2ccc3c(c2)OCCO3)cc1	1%
COc1ccccc1OCC(=O)N(Cc1nc(-c2ccc(Cl)cc2)no1)C(C)C	3%
COC(=O)C(Cc1cnc[nH]1)NC(=O)C1CCC(=O)N1 (stereo not drawn)	10%
O=C(O)CN1C(=O)CSc2ccccc21	2%
CCOc1nc(-c2ccc(C)cc2)ccc1-c1noc(COC)n1	32µM*
COc1cc2c(cc1OC)CN(C(=O)CSc1nc(N)c(C#N)cc1C#N)CC2	?
CC1=[N+]([O-])C(N2CCOCC2)C(O)(c2ccccc2)C1 (stereo not drawn)	7%
CCc1c(C)nc(N)n2c(SCC(=O)N3CCN(c4ccccc4OC)CC3)nnc12	2%
CCOc1ccc(-n2nnc3c(=O)n(CC(=O)c4ccccc4)cnc32)cc1	-4%
FC(F)(F)c1cccc(N2Cc3ccccc3C2)c1	0%
Cc1nc2ccccc2c(=O)n1/N=C/c1ccncc1	0%
Cc1ccc(C(=O)Nc2ccccc2N2CCN(C(=O)C(C)C)CC2)cc1	-15%
CCOC(=O)C1=C(C)NC(C)=C(C(=O)OCC)C1c1ccc(O)cc1	-26%
CCc1nnc(NC(=O)CSc2nnc(-c3c[nH]c4ccccc34)n2CC)s1	1%
O=C(COC(=O)C1CCCN1C(=O)c1cccs1)c1ccccc1 (stereo not drawn)	23%
CCn1c(SCc2nc(CC(=O)Nc3ccccc3OC)no2)nnc1-c1cccs1	4%
CCOC(=O)C1=C(c2ccccc2)N(C)C(=O)NC1c1ccc(O)c(OC)c1 (stereo not drawn)	-2%
COC(=O)c1ccc(CSc2nnc(-c3ccncc3)o2)o1	2%
Cc1ccc2nc(C3CCN(CC(=O)Nc4ccc5c(c4)OCCO5)CC3)[nH]c2c1	5%
CCCS(=O)(=O)N1CCC(C(=O)NCCCOCC)CC1	9%
Cc1c(N2CCCC2)cc2c(c1NC(=O)c1ccccc1Cl)C(C)(C)CC2(C)C	1%[11.4 µM]
Cc1nc(SCC(=O)c2c[nH]c3ccccc23)n[nH]1	?
COc1ccccc1C(=O)N1CCN=C1c1ccccc1	5%
COCCCn1c2nc3ccccc3nc2c2c(=O)n(Cc3ccc(Cl)cc3)cnc21	3.2µM*
Cc1c(NC(=O)CSc2nc(-c3ccco3)cc(C(F)(F)F)n2)c(=O)n(-c2ccccc2)n1C	-21%
CC(=O)N1CCN(CC(O)COc2ccc(OCc3ccccc3)cc2)CC1 (stereo not drawn)	14%
CCN(CC)S(=O)(=O)c1ccc(NC(=O)C(OC)c2ccccc2)cc1 (stereo not drawn)	14%
Cc1cccc(NC(=O)c2ccccc2NC(=O)C(C)(C)C)n1	2%
O=C(Cn1c(=O)n(CC2CCCO2)c(=O)c2ccccc21)c1ccccc1 (stereo not drawn)	?
COc1ccc(-n2nc3c(c2NC(=O)c2cc4ccccc4oc2=O)CS(=O)(=O)C3)cc1	-30%
NS(=O)(=O)c1ccc(NC(=O)Nc2cccc3ccccc23)cc1	7%[11.4 µM]
Cc1ccc(S(=O)(=O)N(CC(=O)NCc2ccco2)Cc2ccccc2F)cc1	3%
NS(=O)(=O)c1ccc(CCNC(=O)NC2(C(F)(F)F)Oc3ccccc3O2)cc1	-14%
CCN1C(=O)/C(=C2/SC(C)=C(C)N2CC)SC1=S	2%
CCN(CC(=O)NC(C)C)C(=O)CCNC(=O)c1ccc(Cl)cc1	-1%
O=C(Nc1ccccc1O)c1ccc(Cl)cc1	3%
Cc1nc2sc(C(c3cccs3)N3CCN(c4cccc(Cl)c4)CC3)c(O)n2n1 (stereo not drawn)	14%
CCOC(=O)Cc1csc(NC(=O)Nc2ccccc2)n1	5%
COc1ccc(S(=O)(=O)N(CCCN2CCCC2=O)Cc2cc3c(C)ccc(C)c3[nH]c2=O)cc1	15%
CCOc1ccc2sc(NS(=O)(=O)c3ccc(OC)c(OC)c3)nc2c1	-2%
Cc1cccc2cc(CN(Cc3nnnn3Cc3ccco3)C3CCCC3)c3nnnn3c12	-1%
CN(Cc1ccccc1)S(=O)(=O)c1ccc2c(c1)n(C)c(=O)n2C	6%
CN(C)CCCc1cc(C(=O)Nc2ccc(-c3ccncc3)cc2)ccc1O	-15%
CCCC(C(=O)NC1CCCCC1)N(CC1CCCO1)C(=O)CNS(=O)(=O)c1ccc(F)cc1 (stereo not drawn)	5%
CCN(CC)C(=O)C1=C(C)NC(=O)NC1c1ccccc1F (stereo not drawn)	5%
COc1ccccc1OCc1ccc(C(=O)N2CCN3CCCC3C2)cc1 (stereo not drawn)	-8%
Cn1c(=O)c2c(nc(Cl)n2Cc2ccncc2)n(C)c1=O	-5%
COc1ccc(N2CCN(C(=O)CCS(=O)(=O)c3cccc4nsnc34)CC2)cc1	-11%
O=C(NCCNC(=O)C(c1ccccc1)c1ccccc1)c1ccco1	4%

5 compounds already listed, ordered by length of the SMILES, smallest number first:
SMILES	HSD17B inh
CCN1C(=O)/C(=C2/SC(C)=C(C)N2CC)SC1=S	2%
NS(=O)(=O)c1ccc(NC(=O)Nc2cccc3ccccc23)cc1	7%[11.4 µM]
CCN(CC(=O)NC(C)C)C(=O)CCNC(=O)c1ccc(Cl)cc1	-1%
CC(=O)N1CCN(CC(O)COc2ccc(OCc3ccccc3)cc2)CC1 (stereo not drawn)	14%
Cc1cccc2cc(CN(Cc3nnnn3Cc3ccco3)C3CCCC3)c3nnnn3c12	-1%

A portion of the library; count on the stated rates, not on these rows.
